miR-21 reporter – raises the signal of a miR-21 reporter. AID 2288. HeLa miR-21 FLuc reporter, luciferase, 48 h. 340,000 tested, under 10 active. Potency, µM (doses to about 38.3 µM), without a hit: top-dose reporter change, positive = more light; active = well fitted rising curve with a large enough effect; inconclusive = small, poorly fitted or top-dose-only effect; inactive = no such curve, though single readings can be large or run the other way;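 further: % of control where 0% means no effect; miR-21 action dims this reporter so a rising signal means less miR-21 action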
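HeLa cells stably expressing CMV-driven firefly luciferase with a downstream miR-21 binding sequence, endogenously expressing miR-21, were treated with titrations (up to about 40uM final) for 48 hours at 37 degree Celsius. Luciferase luminescence was read after lysis.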
Rango-impB inh – prevents formation of the Rango-importin beta complex. Q14974. Rango CFP/YFP FRET sensor + importin beta, 45 min. Potency, µM (top dose mostly 92.2 µM), for inactives: at the highest dose inhibition of complex formation. 340,000 compounds, 0.031% hits. AID 540263; active = rising FRET ratio curve, often small or poorly fitted; inconclusive = mostly compound fluorescence or quenching in the first reads; inactive = flat curves in all reads;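 further: potency means the concentration at half of the fitted maximal effect; 0% = DMSO wells and 100% = buffer wells lacking importin beta; nearly all actives have a fitted effect of over 15% in size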
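Inhibition scored from the CFP 486 nm/YFP 530 nm FRET ratio 45 min after adding 0.125 microM importin beta to 50 nM Rango biosensor preincubated 5 min with compound (room temperature, PBS with DTT, Tween-20, BSA). No-importin wells as positive control.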
GLA inh pH 4.5 – blocks human alpha-galactosidase A at pH 4.5; P06280; purified enzyme, 4-MU-alpha-Gal fluorescence, pH 4.5; activity change, negative = inhibition, % at 105 µM; 230,000 tested, under 10 active; AID 1467; inconclusive = small, poorly fitted or top-dose-only inhibition, or a rising curve; inactive = flat fitted curve, though single readings scatter; no compound was filed as active;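 further: 0% = full activity with enzyme and -100% = basal without enzyme; dose as in the result columns while the protocol names 77 µM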
Target sequence (P06280 whole entry, looked up): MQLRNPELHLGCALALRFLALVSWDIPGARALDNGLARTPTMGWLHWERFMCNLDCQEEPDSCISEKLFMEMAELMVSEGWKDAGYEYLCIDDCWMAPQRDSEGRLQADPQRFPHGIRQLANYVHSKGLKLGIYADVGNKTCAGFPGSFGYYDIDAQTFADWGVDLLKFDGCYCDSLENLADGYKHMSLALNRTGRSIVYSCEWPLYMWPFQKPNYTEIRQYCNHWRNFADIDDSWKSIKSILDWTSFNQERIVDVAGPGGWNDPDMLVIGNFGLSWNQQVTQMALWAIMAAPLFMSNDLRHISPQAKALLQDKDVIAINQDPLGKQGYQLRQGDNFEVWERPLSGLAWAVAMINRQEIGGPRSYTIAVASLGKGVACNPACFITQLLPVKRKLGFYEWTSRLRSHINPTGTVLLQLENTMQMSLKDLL
Rango release inh – inhibitors of RanGTP-induced Rango-importin beta complex dissociation | O95149+P62826 | Biochemical FRET Rango-importin beta, RanGTP-induced dissociation | Potency, µM (highest dose often 46.1 µM), for inactives: at the highest dose activity change, negative = inhibition | 340,000 compounds, 0.071% hits; active means falling FRET ratio curve, often poorly fitted, with flat reads before Ran was added; inconclusive means other falling curves, or compound fluorescence or quenching; inactive means flat or rising ratio curve;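 further: potency means the concentration at half of the fitted maximal effect; % of control where 0% means no effect; nearly all actives have a fitted effect of over 45% in size; -100% = wells without RanGTP and RCC1; the record marks most hits as doubtful in a second field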
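Recombinant Rango FRET biosensor (EYFP–snurportin 1 IBB–cerulean CFP10) at 0.1 uM premixed with 0.25 uM importin beta in PBS, 1 mM DTT, 0.02% Tween-20, 0.1% BSA. Compound added 5 min; RanGTP-RCC1 (0.6 uM Ran, 2 mM GTP, 0.2 uM RCC1) then triggers release, read at 45 min.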
Numbers without * were called inactive; ? = inconclusive; / = no result given; & = joins results of further samples; [ ] = remark or other dose.

Sequence of screens: miR-21 reporter	Rango-impB inh	GLA inh pH 4.5	Rango release inh
Cc1ccc(N(C)S(=O)(=O)c2cccc(C(=O)Nc3nnc(C4CC4)s3)c2)cc1
→ 2%	-0.5%	-7	1%
O=C(Nc1c(Cl)cc(Cl)cc1C(=O)NCCN1CCOCC1)c1cccc([N+](=O)[O-])c1
→ 0%	0.2%	6	1%
O=C(CN1CCOCC1)N/N=C/c1ccc(C(=O)O)cc1
→ -9%	-2.2%	-6	1%
COc1ccccc1/C=N/NC(=O)CC(=O)NCc1cccnc1
→ -1%	5.0%	-16	32%
CCN(c1ccccc1)S(=O)(=O)c1cccc(C(=O)NCc2cccnc2)c1
→ /	1.6%	/	-3%
Cc1ccc(/C=N/NC(=O)c2nnn(-c3nonc3N)c2-c2ccc3c(c2)OCO3)s1
→ 0%	-1.0%	/	-1%
O=C1c2cccc3cc(Br)cc(c23)C(=O)N1Nc1ccc(Br)cc1
→ -12%	1.0%	-6	16%
CCn1c(SCC(=O)Nc2cc(C)on2)nnc1-c1ccco1
→ -1%	-1.4%	3	12%
O=C(Nc1ccc(Cl)c(S(=O)(=O)N2CCOCC2)c1)C1=NN(c2ccccc2)C(=O)CC1
→ /	-0.7%	/	-12%
O=c1c2c(nc3cc(-c4cccc(Cl)c4)[nH]n13)CCC2
→ -58%	0.8%	-4	31%
Cc1ccc(NP(=O)(c2ccc(N(C)C)cc2NC(=O)c2cccs2)N2CCOCC2)cc1 (centres undefined)
→ -8%	-0.7%	-10	4%
CC(=O)CC(C)(C)NC(C)=S
→ 3%	2.2%	4	14%
Cn1c(C(=O)N2CCCC(C(=O)NCc3ccccc3)C2)cc2sccc21 (centres undefined)
→ 1%	0.4%	/	-2%
COc1cccc(C(=O)NN2CC(O)=C(c3nc(C)cs3)C2=N)c1
→ -4%	4.3%	-11	-20%
CCOc1ccc([C@@H]2CC=C(C(=O)O)[C@H](c3ccc(Cl)cc3)N2S(=O)(=O)c2ccc(C)cc2)cc1
→ /	-5.4%	/	1%
Cc1ccc(S(=O)(=O)NCC(=O)OCC(=O)NCc2ccc(F)cc2)cc1
→ -3%	-0.4%	0	3%
CO/N=C1\CCn2c1c(C)c1ccccc12
→ ?	2.7%	2	13%
COc1ccccc1CNC(=O)C(=O)NCCC1CCCCN1S(=O)(=O)c1cccs1 (centres undefined)
→ /	4.0%	/	1%
O=C(/C=C/c1cccc(F)c1)c1ccc(N2CCOCC2)cc1
→ -23%	-2.1%	-12	1%
COc1ccc(/C=C(\C#N)C(=O)NCCCn2ccnc2)cc1
→ -3%	-0.7%	2	14%
Cc1cc(C)c2c(c1)cc(C)c1nnc(SCC(=O)Nc3cc(C)on3)n12
→ 11%	-2.5%	0	21%
Cc1ccc(S(=O)(=O)Nc2cc(C)cc(CCNC=O)c2C)cc1
→ /	2.2%	/	9%
CC1CCCCN1C(=O)CSc1nnc(Cc2ccccc2)n1C (centres undefined)
→ -6%	-0.8%	-4	-7%
Cc1ccc(NC(=O)CSc2nc(=O)n(CCCN3CCOCC3)c3c2CCCC3)cc1F
→ /	2.0%	/	-8%
COc1ccc(S(=O)(=O)N2CCN(C(=O)c3c(C)nn(-c4ccccc4)c3Cl)CC2)cc1
→ 0%	-3.0%	-6	-2%
O=S(=O)(Cc1cc(NCc2ccccc2)nc(-c2ccncc2)n1)c1ccccc1
→ -1%	0.1%	0	-3%
COCC(=O)NCCc1ccc(S(N)(=O)=O)cc1
→ 0%	0.4%	2	13%
CCCn1c(=O)c(C(=O)NCc2ccccc2Cl)c(O)c2ccccc21
→ -4%	-3.6%	/	-1%
CC(=O)N1CCN(c2nc(CC(C)C)c3c(c2C#N)CCC3)CC1
→ -8%	-0.4%	4	7%
Cc1cc(NC(=O)CN2CC3CC(C2)c2cccc(=O)n2C3)nc2c1c(=O)oc1ccccc12 (centres undefined)
→ 0%	/	1	/
CCOC(=O)N1CCC(NC(=O)Cn2cc3c(n2)CCCCC3)CC1
→ -1%	-5.1%	2	11%
CC(C)(C)C(=O)Nc1nnc(-c2ccncc2)o1
→ -6%	6.2%	-4	6%
COC(=O)c1sc2nc(C)c([N+](=O)[O-])c(C)c2c1N
→ -34%	3.1%	1	-9%
CN1C(=O)C(CC(=O)NC2CCCCC2)N(C)C1=O (centres undefined)
→ -4%	2.2%	-1	17%
COc1cc(CCC(=O)Nc2cnc3ccccc3c2)cc(OC)c1OC
→ 4%	?	/	10%
Cc1ccc(S(=O)(=O)Oc2ccccc2N2C(=O)C3CC=CCC3C2=O)cc1 (centres undefined)
→ 0%	0.2%	-2	31%
CCCCCCC1CC(/C(C)=N\NC(N)=O)OC1=O (centres undefined)
→ -6%	-3.3%	3	1%
CC1(C)C2CC=C(/C=N/NC(=O)C3CC3)C1C2 (centres undefined)
→ -4%	-1.2%	1	-1%
Cc1ccc(S(=O)(=O)n2nccc2-c2c(-c3ccccc3)noc2C)cc1
→ 25%	5.8%	-3	16%
CC(C)c1ccc(N2C(=O)CSC23C(=O)N2CCCc4cccc3c42)cc1 (centres undefined)
→ 0%	1.9%	-4	-9%
COc1ccc(CC(=O)N2CC3(C)CC2CC(C)(C)C3)cc1 (centres undefined)
→ -3%	0.7%	-7	1%
CCn1cc(C(=O)NCC(C)C)c(=O)c2cc(F)c(N3CCN(C(=O)c4ccco4)CC3)cc21
→ -6%	-5.3%	/	-11%
Cc1c(Cc2ccccc2)c(=O)oc2cc(O)ccc12
→ -6%	?	?	?
COc1ccc(C(C(=O)Nc2ccc(C(C)C)cc2)N(Cc2ccco2)C(=O)CC2NC(=O)NC2=O)cc1 (centres undefined)
→ 4%	0.0%	-7	-1%
O=C(Nc1ccc(N2CCN(C(=O)c3ccco3)CC2)cc1)c1cccs1
→ -14%	-2.1%	4	-1%
COc1ccc(Cn2nnnc2C(c2ccccc2Cl)N2CCN(C3CCCC3)CC2)cc1 (centres undefined)
→ -6%	-0.1%	-3	-3%
Cc1cc(C(=O)N/N=C/c2cccc(OC(=O)c3cccc(Br)c3)c2)n[nH]1
→ -17%	4.4%	/	20%
CCCCn1c2nc3ccccc3nc2c2c(=N)oc(C)nc21
→ -5%	?	1	?
Cc1cc(OCC(=O)Nc2ccc(CN3CCOCC3)cc2)c2c(C)c(C)c(=O)oc2c1
→ 2%	1.1%	/	9%
COc1ccc(C)cc1S(=O)(=O)Nc1ccc(-n2c(C)nc3ccccc3c2=O)cc1
→ /	-0.1%	/	-3%
Cc1cc(=O)n(C(C)c2ccccc2)n1C(C)c1ccccc1 (centres undefined)
→ /	0.7%	/	-2%
CCCOc1ccc(/C(O)=C2/C(=O)C(=O)N(c3cc(C)on3)C2c2ccc(C(=O)OC)cc2)cc1 (centres undefined)
→ -2%	-3.4%	-16	8%
COc1ccccc1CC(=O)Nc1ccc([N+](=O)[O-])cc1O
→ 0%	?	5	15%
CCCC(=O)NCc1ccccc1Cl
→ -2%	-0.8%	7	8%
CCc1ccc(OCC(=O)OC(C)C(=O)Nc2ccc(Cl)cn2)cc1 (centres undefined)
→ /	0.4%	/	1%
Cc1cc(OCC(=O)Nc2ccncc2)c(C)cc1Br
→ -1%	1.6%	9	-8%
CCCCN(CC)S(=O)(=O)N1CCC(C(=O)NCCCN2CCOCC2)CC1
→ -4%	-4.3%	12	-7%
O=C(COC(=O)CNC(=O)c1ccc([N+](=O)[O-])o1)Nc1ncc(Cl)cc1Cl
→ /	-2.1%	/	0%
CCCN1C(=O)CC(=O)N=C1SCC(=O)Nc1ccccc1F
→ /	-0.2%	/	37%
C[C@@H](C(=O)NCc1ccccc1)[C@@H]1C[C@@]1(C)[C@@H](NC(=O)OCc1ccccc1)c1ccccc1
→ 12%	-0.7%	8&-17	10%

Next structures.
Sequence of screens: miR-21 reporter	Rango-impB inh	GLA inh pH 4.5	Rango release inh
COc1cccc2c1C(=O)c1c(O)c3c(c(O)c1C2=O)C[C@](O)(C(C)=O)C[C@H]3O[C@@H]1C[C@@H](N)[C@@H](O)[C@@H](C)O1
→ /	20%	/	21%
COc1ccc(/C=C2\CCC/C(=C\C=N\N(C)C)C2=O)cc1
→ 28%	?	-2	?
CCOCCCn1c(SCC(=O)Nc2cc(OC)ccc2OC)nc2ccccc2c1=O
→ 10%	2.5%	/	6%
CC(=O)Nc1ccc(C(=O)N(C)C(C(=O)Nc2ccc(C)cc2)c2ccccn2)cc1 (centres undefined)
→ -6%	-0.1%	-2	-2%
COc1ccc(C(=O)Nc2ccc(C(=O)N3CCOCC3)cc2)cc1OC
→ -13%	?	/	?
CCOC(=O)C1=C(CC)Nc2ccccc2N=C1NC(=O)Nc1ccc(Cl)c(Cl)c1
→ ?	0.5%	-6	0%
CC(=O)c1cccc(NC(=S)NC2CCCCC2)c1
→ -17%	-0.3%	7	6%
CCCc1cc(=O)oc2c(CN3CCCC3)c(O)ccc12
→ 1%	?	?	?
CC(C)N(C(=O)[C@H]1CC(CC(=O)NCCc2ccccn2)C(=O)N2CCc3c([nH]c4ccccc34)[C@]12C)C(C)C (some centres undefined)
→ /	-4.2%	/	5%
O=c1oc2ccccc2c(NC2CCCCC2)c1NS(=O)(=O)c1ccc(Br)cc1
→ 12%	-0.6%	/	31%
S=C(NCc1cccs1)Nc1ccccc1
→ -4%	-4.1%	0	0%
COc1cccc(CNC(=O)CCC(=O)N2CCOCC2)c1
→ /	-1.6%	/	-18%
COc1ccc(CN(C)S(=O)(=O)c2ccc3c(c2)OCCO3)cc1
→ -33%	-1.3%	/	-3%
CCOC(=O)C1CCCN(c2oc(-c3ccc(OC)cc3)nc2C#N)C1 (centres undefined)
→ -10%	2.3%	-7	0%
CC(C)n1ncc2c(C(=O)NCCc3ccc(S(N)(=O)=O)cc3)cc(C3CC3)nc21
→ /	1.8%	/	-16%
CCOc1ccc(S(=O)(=O)NN)cc1
→ 0%	1.0%	4	1%
Cc1cc(Cl)ccc1OCC(=O)Nc1ccccc1CO
→ -33%	-0.1%	-4	4%
CC(C)c1nnc(NC(=O)CC(C)c2ccccc2)s1 (centres undefined)
→ -23%	2.3%	/	4%
Cc1ccc(C)c(N2CCN(C(=O)CCCn3ncn4c(cc5occc54)c3=O)CC2)c1
→ ?	2.6%	/	2%
O=C(c1cc(C2CC2)nn1-c1ccccc1)N1CCN(S(=O)(=O)c2c(F)cccc2F)CC1
→ /	2.3%	/	7%
N#C/C=C1/NC(=O)c2ccccc2S1
→ -14%	3.1%	12	-5%
COc1ccc(NS(=O)(=O)c2ccc(N3CC(O)=C(c4ccccc4)C3=N)cc2)cc1
→ -2%	0.2%	-3	-1%
Clc1ccc(OCCSc2ncccn2)c(Br)c1
→ -61%	-0.1%	1	4%
COCCNC(=O)c1cc(-c2ccc(OC)c(OC)c2)on1
→ -34%	-1.1%	3	22%
CCN1CCN(C(=O)CSc2cc(=O)n(C)c3ccccc23)CC1
→ 5%	-0.4%	3[21.1 µM]	10%
COc1cc(C(=O)NCc2nnc(SCC(=O)N3CCCC3)o2)cc(OC)c1OC
→ 3%	6.4%	/	7%
CCCCOc1ccc(NC(=O)CN2CCN(CC)CC2)cc1
→ -11%	-0.6%	/	-2%
O=C1c2ccccc2C(=O)c2c(NCc3cccnc3)cccc21
→ -16%	-2.8%	4	-6%
O=C(COc1ccc(Br)cc1)Nc1nc(-c2cccnc2)cs1
→ -1%	-7.3%	1	1%
COc1cc(C2NC(=O)NC(C)=C2C(=O)OC2CCCCC2)cc(Br)c1O (centres undefined)
→ -21%	?	4	14%

Results in Rango-impB inh, for some of the entries so far:
compound	Rango-impB inh
N#C/C=C1/NC(=O)c2ccccc2S1	3.1%
O=C(c1cc(C2CC2)nn1-c1ccccc1)N1CCN(S(=O)(=O)c2c(F)cccc2F)CC1	2.3%

High-throughput results deposited in PubChem by National Center for Advancing Translational Sciences (NCATS).

Some of the compounds tested; the hit share may differ from the screen's.
